Source: PubChem
T cruzi repl = inhibitors of intracellular T. cruzi growth, primary screen, luminescence, NIH3T3 host cells; T. cruzi beta-gal in NIH3T3, 90 h; inhibition, % (no concentration beside the values); actives 1.4% (n = 300,000); AID 1885, 2009;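 active means mean inhibition across valid replicates above about 55%, limit read from the data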;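 further: signal also drops with host cell toxicity which is not excluded here; 0% = plate median of DMSO wells and 100% = zero luminescence signal; higher percent means less beta-gal luminescence so fewer parasites; stock transfer was 50 nL into about 50 µL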
FGF22 binding = binders of human FGF22 protein, primary screen, FGF22 synaptogenesis inhibitor project, biophysical, thermal shift, single point | actives 1.5% (n = 340,000) | recombinant FGF22 thermal shift, SYPRO orange fluorescence; percent of sucrose octasulfate shift, DMSO zero | calls only at 9.99 µM | Fibroblast growth factor 22 (Homo sapiens), Q9HCT0;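 active means melting point raised past a set limit in the mean and every replicate; three in four hits are not shown here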
Target sequence (Q9HCT0 whole entry, looked up): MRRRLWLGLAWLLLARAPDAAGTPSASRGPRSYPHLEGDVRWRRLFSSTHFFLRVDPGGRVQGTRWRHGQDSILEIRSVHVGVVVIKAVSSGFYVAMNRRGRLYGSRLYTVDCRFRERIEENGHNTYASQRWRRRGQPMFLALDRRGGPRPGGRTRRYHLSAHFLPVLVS
E coli growth = E. coli growth inhibition, primary screen, OD600 | Escherichia coli growth, 23 h; hits give low values | OD600 absorbance (concentration not given with the values) | actives 0.21% (n = 330,000) | AID 1053175, 2014;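 active means OD600 absorbance below the run mean of sample wells minus 3.6 SD, in any replicate, cut at about 0.56 in these data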;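 further: stock transfer was 300 nL into about 60 µL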
UCH37 DUB inh = inhibitors of human UCH37 deubiquitinase, primary screen, biochemical, Ub-AMC cleavage, fluorescence; actives 0.33% (n = 330,000); inhibition, % (test concentration not listed); AID 588478, 2011; purified proteasome/UCH37; Ubiquitin carboxyl-terminal hydrolase isozyme L5 (Homo sapiens), Q9Y5K5;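 active means mean of two replicates above 20%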;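 further: 0% = compound-free wells with enzyme and 100% = wells lacking proteasome; stock transfer was 100 nL into about 20 µL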
Target sequence (Q9Y5K5 whole entry, looked up): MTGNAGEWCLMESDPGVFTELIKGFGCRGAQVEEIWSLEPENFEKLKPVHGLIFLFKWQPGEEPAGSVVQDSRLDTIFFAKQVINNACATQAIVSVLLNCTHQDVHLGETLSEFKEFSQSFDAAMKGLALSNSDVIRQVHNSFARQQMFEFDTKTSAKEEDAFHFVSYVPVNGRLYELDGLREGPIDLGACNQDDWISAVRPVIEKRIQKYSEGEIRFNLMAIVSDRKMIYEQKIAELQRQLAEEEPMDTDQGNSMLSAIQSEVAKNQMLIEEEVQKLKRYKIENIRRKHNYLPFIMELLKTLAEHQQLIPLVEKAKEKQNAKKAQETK
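Reagent: Ub-AMC substrate; assay system: Proteasome-associated human UCH37 deubiquitinase; controls: no-proteasome and no-compound wells; read-out: % inhibition of Ub-AMC cleavage fluorescence; timing: 30 min preincubation with enzyme, 25 min cleavage at room temperature; signal: AMC fluorescence from Ub-AMC cleavage, excitation 355 nm, emission 460 nm; buffer or medium: Tris-HCl pH 7.4 plus ovalbumin, ATP-MgCl2, DTT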
A1 inh = caspase 3/7 activation in MEF A1-2A-BIM cells, primary screen, A1 inhibitor project, cell-based, luminescence, HTS | Caspase-Glo 3/7 luminescence, 3 h; percent of clofoctol response, vehicle zero | caspase activation, % (concentration not given with the values) | actives 0.066% (n = 330,000) | AID 2462, 2010;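 active means over half of replicate activation scores above 10%, or exactly half above 10 with the replicate mean above 10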;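 further: wells of about 30 µL received 50 nL stock; many hits fall short of the cut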
AF4-AF9 inh = inhibitors of AF4 peptide binding to AF9, primary screen, biochemical, AlphaScreen, biotin-AF4 peptide, FLAG-AF9, single point. actives 0.47% (n = 350,000). AID 651704, 2012. Protein AF-9 (Homo sapiens), P42568. inhibition, % at 10 µM;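 active means every replicate reaching a set inhibition limit, whatever the replicate mean, cut at about 25% in these data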;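 further: 0% = plate neutral control median and 100% = total signal loss; the record names both 10 and 1 µM as test concentration; the first replicate is given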
Target sequence (P42568 whole entry, looked up): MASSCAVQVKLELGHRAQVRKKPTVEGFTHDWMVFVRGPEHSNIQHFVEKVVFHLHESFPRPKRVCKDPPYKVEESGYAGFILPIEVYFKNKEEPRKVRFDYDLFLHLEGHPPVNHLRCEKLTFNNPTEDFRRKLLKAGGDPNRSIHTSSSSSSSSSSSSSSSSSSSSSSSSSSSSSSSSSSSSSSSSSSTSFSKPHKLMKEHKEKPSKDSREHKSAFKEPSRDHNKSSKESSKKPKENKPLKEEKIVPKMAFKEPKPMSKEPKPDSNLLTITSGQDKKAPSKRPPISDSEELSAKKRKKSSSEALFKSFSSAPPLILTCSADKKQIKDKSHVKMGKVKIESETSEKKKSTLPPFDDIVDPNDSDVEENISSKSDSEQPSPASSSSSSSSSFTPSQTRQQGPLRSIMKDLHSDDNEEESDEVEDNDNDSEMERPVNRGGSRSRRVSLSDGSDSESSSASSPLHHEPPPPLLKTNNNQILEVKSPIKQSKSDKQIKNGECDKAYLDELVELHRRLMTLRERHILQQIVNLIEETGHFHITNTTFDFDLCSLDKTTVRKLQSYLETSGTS
rRNA inh HTS = reduced GFP signal of wild-type E. coli, primary screen, bacterial rRNA inhibitor project, GFP/RFP fluorescence, OD600, single point; actives 1.6% (n = 350,000); E. coli WT GFP vs humanized-ribosome RFP mutants, 24 h; hits give low values; DMSO median 0, no signal -100; GFP signal change (wild-type ribosome), % (no concentration beside the values);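 active means significant combined selectivity score with lowered wild-type GFP, culture density cut under 30%, mutant RFP and density less affected; inactive means any of these conditions unmet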; further: one replicate is shown; some compounds called inactive have numbers as strong as hits
Beta cell apopt = inhibitors of cytokine-induced beta cell apoptosis, primary screen, luminescence; INS-1E cytokine-induced death, ATP luminescence, 48 h; percent of positive-control rescue, neutral wells zero; protection from apoptosis, % (no concentration beside the values); actives 0.8% (n = 300,000);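 active means all replicates at 75% or more, or half of them and the mean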;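 further: 0% = cytokine-treated negative control wells and 100% = positive control rescue; higher means more ATP so stronger rescue from cytokine killing; wells of about 40 µL received 100 nL stock; the first replicate is given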
rRNA inh HTS OD600 = recorded beside rRNA inh HTS, whose call it bears; OD600 change, %; measured here: OD600 growth;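 optical density of the mix in the first replicate; 0 = DMSO median and -100 = no signal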
rRNA inh HTS RFP = further read-out of rRNA inh HTS, marked with its call; RFP signal change, %; measured here: RFP humanized mutant strains;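 first replicate; 0 = DMSO median and -100 = no signal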
* = called active by the depositor; i = inactive; / = no result given; + = active, no number; & = joins results of further samples.

SMILES	T cruzi repl	FGF22 binding	E coli growth	UCH37 DUB inh	A1 inh	AF4-AF9 inh	rRNA inh HTS	rRNA inh HTS OD600	rRNA inh HTS RFP	Beta cell apopt
COc1ccc(CN2C(=O)c3cccc4cccc2c34)cc1F	7.6	i	0.651	-22.0	0.5	-4.9	-46.5	-69.9	-10.0	-1.0
CCc1ccc(C2(O)CC(C(F)(F)F)=NN2C(=O)Cc2ccc([N+](=O)[O-])cc2)cc1 (stereo not given)	8.9	/	0.714	4.5	0.2	/	/	/	/	2.3
CC(NC(N)=O)C(=O)OCC(=O)c1ccc(-c2ccccc2)cc1 (stereo not given)	-6.0	i	0.622	2.7	-0.1	-6.5	-7.7	-8.9	-0.3	1.0
O=C(O)c1cccc(S(=O)(=O)Nc2ccc(N3CCCCC3)cc2)c1	/	i	0.668	0.6	-5.7	1.6	/	/	/	2.9
Cc1nn(-c2ccccc2)c2c1C(=O)N(c1ccccc1)C(=O)C(C)(C)C2	-11.5	/	0.786	5.1	0.1	/	/	/	/	-3.6
CC(=O)c1cccc(CN2CCN(Cc3ccccc3)C(CCO)C2)c1 (stereo not given)	10.8	i	0.694	-1.5	1.1	-9.8	-4.6	1.0	-3.0	-5.8
COc1ccccc1/C=C/C(=O)NCC(=O)N/N=C/c1cccnc1	9.7	i	/	/	-0.5	-8.0	4.4	6.3	1.9	0.3
CC(C)C(=O)Nc1ccc(-c2csc(-c3ccccc3)n2)cc1	17.9	/	0.689	1.6	-1.8	/	/	/	/	-1.0
CC(C)C(NC(=O)c1ccc(C(C)(C)C)cc1)C(=O)NCCc1ccccn1 (stereo not given)	-0.6	i	0.765	1.1	0.4	-1.0	2.9	4.7	-2.6	0.4
CCN(CC)CC(=O)Nc1ccc([N+](=O)[O-])cc1	9.0	i	0.636	7.8	0.2	0.4	8.5	1.9	-1.0	-1.1

The final 2 entries of the part above lead into the next.
SMILES	T cruzi repl	FGF22 binding	E coli growth	UCH37 DUB inh	A1 inh	AF4-AF9 inh	rRNA inh HTS	rRNA inh HTS OD600	rRNA inh HTS RFP	Beta cell apopt
CC(C)C(NC(=O)c1ccc(C(C)(C)C)cc1)C(=O)NCCc1ccccn1 (stereo not given)	-0.6	i	0.765	1.1	0.4	-1.0	2.9	4.7	-2.6	0.4
CCN(CC)CC(=O)Nc1ccc([N+](=O)[O-])cc1	9.0	i	0.636	7.8	0.2	0.4	8.5	1.9	-1.0	-1.1
CCOC(=O)c1ccc(S(=O)(=O)NCCNCc2ccccc2)cc1	/	i	0.587	2.2	0.1	-0.2	-2.2	-10.0	-5.7	-1.1
C=CCCCCCCCCC(=O)Nc1c[nH]c(=O)[nH]c1=O	-31.2	/	0.648	2.8	0.4	/	3.1	-1.4	4.7	-8.6
O=C(NCCNC(=O)Oc1cccc2ccccc12)Oc1cccc2ccccc12	/	i	0.711	5.6	/	0.8	-6.2	0.9	18.0	/
CC(=O)Nc1ccc(NC(=O)CSc2nnnn2-c2ccc(F)cc2)cc1	16.7	i	0.707	4.3	1.0	-3.8	0.2	6.1	-0.4	-1.4
CNC(=O)Nc1nnc(C(C)(C)C)s1	-10.7	/	0.681	4.3	-0.6	/	/	/	/	-6.1
O=c1cc(O)c2sc(Nc3ccc(F)cc3)nc2[nH]1	-17.5	i	/	/	1.3	4.9	6.0	2.7	4.3	/
CCCC(C)c1nc(C(N)=O)c2[nH]c(=O)n(-c3ccc(OC)c(OC)c3)c2n1 (stereo not given)	-19.9	i	0.646	1.4	1.0	0.0	-0.3	8.8	-2.4	6.3
CN1CCN(c2c(/C=N/O)c3ccccc3n2C)CC1	-13.9	i	/	/	2.3	2.5	5.5	6.1	0.8	1.8
O=C(COC(=O)/C=C/c1ccc(OC(F)F)cc1)NC1CCCCCC1	/	/	0.716	2.7	0.3	-3.5	-18.1*	8.1*	-1.3*	2.6
COC(=O)NNC(=S)Nc1cc(OC)ccc1OC	-24.7	i	0.691	3.7	1.3	-2.7	24.7	5.9	-5.7	-3.8
Cc1cc(C(=O)N2CCC(C(=O)O)CC2)c(C)o1	-2.3	i	0.677	1.5	-0.7	-0.4	22.3	14.7	2.0	-6.5
Cn1c(=O)n(C)c2cc(/C=C(/C#N)C(=O)NCc3ccco3)ccc21	-13.9	i	0.739	2.9	0.4	-1.4	5.8	-3.2	4.4	-3.0
Cc1cccc(CN2CCc3c([nH]c4ccccc34)C2CC(C)C)n1 (stereo not given)	-2.0	i	0.684	-25.0	-0.2	9.4	3.7	-3.9	14.8	/
O=C(O)COc1ccccc1/C=N/NC(=O)c1cc(-c2ccc(F)cc2)nc2ccccc12	0.8	+	/	/	0.2	2.2	-5.9	-4.1	-1.9	-1.8
O=C(Nc1cccc(/C=C/c2ccccn2)c1)c1ccc(-n2cncn2)cc1	/	/	0.692	-16.6	-0.2	/	/	/	/	14.0
CCOC(=O)N1CCC(Nc2ccc3nnc(-c4ccccc4)n3n2)CC1	11.5	i	0.735	4.8	0.2	-3.4	-13.2	-12.8	12.2	-1.4
COCCCNC(=S)N1CCN(C(=O)C(=O)Nc2ccc(C(=O)OC)cc2)CC1	-23.0	/	0.664	2.5	-1.7	/	/	/	/	-3.8
Cc1cccc(NC(=O)Cc2noc3ccccc23)c1C	6.5	i	0.631	-1.4	-0.8	-5.2	8.0	12.8	6.2	-10.8
CN1CCN(C(=O)C2=C[C@@H](c3ccc(C(F)(F)F)cc3)C[C@@H](OCCCCO)O2)CC1	-13.8	i	/	3.9	-4.6	-3.1	7.0	0.8	-2.2	4.0
CCN(Cc1ccccc1)S(=O)(=O)c1ccc(C(=O)N(CCCN(C)C)c2nc3ccc(F)cc3s2)cc1	37.3	i	0.663	4.8	0.7	0.7	-52.2	-81.3	-18.8	2.1
CCc1cccc(C)c1NC(=O)CSc1nnc(CCCOc2ccc(Cl)cc2Cl)n1C	1.9	/	0.685	6.5	-0.6	/	/	/	/	-7.0
Cc1cc(NS(=O)(=O)c2ccc(NC(=O)/C=C/c3ccc(C)o3)cc2)nc(C)n1	-8.2	i	0.706	4.3	0.1	-13.7	19.2	10.1	3.1	-4.2
Cc1ccccc1C(=O)c1cccn1CC(=O)N1CCCCCC1	3.2	/	0.72	6.4	0.6	/	/	/	/	0.2
O=C(NNc1nc2cc3c(cc2s1)OCO3)c1ccc(F)cc1	-3.7	i	0.698	3.2	-0.5	2.3	-41.4	-52.3	-11.1	-1.9
O=C(CN1CCN(c2ccc(F)cc2)CC1)Nc1ccccc1C(=O)NCCc1ccccc1	/	i	0.668	0.3	/	0.6	4.2	6.5	-3.9	/
CN1CCC(=C2c3ccccc3C=Cc3ccccc32)CC1	20.3	i	0.631	0.2	-0.5	0.9&3.6	-8.0	-34.9	-2.9	2.9
COc1ccc(OC)c(CNC(=O)Cc2c(C(=O)O)[nH]c3ccc(Cl)cc23)c1	21.6	i	0.709	1.9	1.2	-0.5	-20.0	-21.6	-2.8	-0.1
O=C(NC(=S)Nc1ccc(N2CCOCC2)cc1)c1cccc([N+](=O)[O-])c1	-12.3	i	0.707	4.8	-0.1	-0.9	31.3	18.4	-5.3	1.1
CCOC(=O)c1cn(-c2ccccc2)nc1-c1ccncc1	38.3	/	0.71	-1.0	-0.7	/	-2.1	-1.1	-2.3	1.3
Cc1c(NC(=O)C(C)OC(=O)c2ccc(NC(=O)CC#N)cc2)c(=O)n(-c2ccccc2)n1C (stereo not given)	1.0	/	0.703	2.8	-0.9	1.2	2.4	8.0	0.6	-0.8
COc1ccc(C(=O)NCc2nnc(SCC(=O)c3ccc(F)cc3)n2C)cc1OC	-5.6	/	0.669	1.9	0.3	0.1	3.3	6.7	-3.0	/
COc1cc(C(=O)OCC(=O)NCc2ccc(F)cc2)cc(NC(=O)c2cccs2)c1OC	5.5	i	0.703	-106.2	0.9	-1.0	3.8	9.7	2.7	9.1
O=C(Cn1cccc1C(=O)c1ccccc1)NCCCN1CCOCC1	-12.8	/	0.668	5.7	0.4	/	/	/	/	-2.1
CN(CC(=O)Nn1cnnc1)S(=O)(=O)c1ccccc1	0.6	i	0.734	0.6	1.2	-44.5	13.9	9.4	-3.1	-2.3
CSCC[C@H](N)C(=O)N1CCC(C(=O)N[C@H](C)C(=O)NC(C)c2ccccc2)CC1 (stereo not given in full)	-8.6	i	0.719	3.4	0.4	1.7	/	/	/	/
CCn1c(SCC(=O)Nc2nc(C)c(C)s2)nnc1-c1cccs1	-3.2	/	0.679	1.3	0.7	/	/	/	/	-0.7
Cc1ccc(Cl)cc1NC(=O)COC(=O)C1CCCC1	2.9	/	0.675	4.3	-0.3	/	/	/	/	2.5
Cc1cccc(NC(=O)CNC(=O)CN2C(=O)NC(C)(CCC(C)C)C2=O)c1C (stereo not given)	/	i	0.696	2.8	/	0.0	4.9	2.9	2.3	/
COc1cc(C#Cc2c(-c3cncn3C)n(C)c3ccc(-c4cnc(N5CCOCC5)nc4)cc23)cc(OC)c1	/	i	0.718	-0.8	-5.4	10.7	2.0	7.4	5.1	15.5
COc1ccc(C(C(=O)NC2CCCC2)N(C(=O)c2ccco2)c2ccc3c(c2)OCO3)cc1OC (stereo not given)	12.4	/	0.679	-0.4	1.3	/	/	/	/	5.8
O=C(/C=C/c1cc2c(cc1Br)OCO2)NCc1ccc(Cl)cc1	7.9	/	0.758	-0.1	-0.1	/	/	/	/	/
CN(Cc1ccccc1F)c1ccc(S(=O)(=O)N2CCCC2)cn1	-2.2	i	0.685	5.1	0.4	-1.9	-17.6	-23.6	-1.0	-2.0
C=C(C)CN1C(=O)c2ccccc2C1=O	-3.3	i	0.638	-0.4	-0.4	3.5	8.6	2.0	-4.7	-1.5
O=C(CSc1nnc(-c2ccco2)n1CC1CCCO1)c1ccc(F)cc1 (stereo not given)	7.0	/	0.723	0.0	-1.1	/	/	/	/	-4.2
Cc1cc(C)cc(NC(=O)CS(=O)(=O)c2cccc3nsnc23)c1	-10.8	i	0.696	4.4	1.0	7.5	-3.5	-17.0	-0.7	4.2
COC1=CC(=O)OC12CCCCC2	-17.8	/	0.666	-3.0	0.5	/	/	/	/	7.7
Cc1cc(C)c(NC(=O)NC(=O)c2cccc(F)c2)c(C)n1	-6.7	/	0.685	3.6	0.4	/	/	/	/	-1.4

Not all compounds are listed, so the mix of outcomes need not match the whole.
